HCMV NEC inh = disrupts HCMV UL50-UL53 complex binding. actives 0.15% (n = 190,000). HTRF UL50-UL53 interaction, normalized percent inhibition. inhibition, % (no concentration beside the values);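 active means both replicates at 50% or more, plus weaker picks with an unusually low signal ratio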;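 further: stock transfer was 100 nL into about 20 µL; 0% = negative control wells and 100% = wells with untagged competitor protein; inactives centre near -12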
Sa growth 42C = blocks Staphylococcus aureus growth | S. aureus RN4220 growth, OD600, 20 h, 42 °C; hits give low values | actives 0.53% (n = 170,000) | AID 720641 | relative growth, % (no concentration beside the values);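 active means growth at 42 °C up to 50% and 20 or more points under that at 30 °C, or under 10% at both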;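 further: 300 nL library stock went into each well; scaled to the means of positive and negative controls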
GIV-Gai inh = blocks GIV peptide binding to rat Galpha-i3 | P08753 | Galpha-i3/FITC-GIV peptide fluorescence polarization, 90 min; hits give low values; scaled: aluminum fluoride 0%, vehicle 100% | percent of control (FP), % (test concentration not listed) | actives 0.42% (n = 210,000);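 active means replicate mean at 85% of control or lower, very high polarization wells dropped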;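 further: wells of about 15 µL received 100 nL stock; the first replicate is given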
Target sequence (P08753 whole entry, looked up): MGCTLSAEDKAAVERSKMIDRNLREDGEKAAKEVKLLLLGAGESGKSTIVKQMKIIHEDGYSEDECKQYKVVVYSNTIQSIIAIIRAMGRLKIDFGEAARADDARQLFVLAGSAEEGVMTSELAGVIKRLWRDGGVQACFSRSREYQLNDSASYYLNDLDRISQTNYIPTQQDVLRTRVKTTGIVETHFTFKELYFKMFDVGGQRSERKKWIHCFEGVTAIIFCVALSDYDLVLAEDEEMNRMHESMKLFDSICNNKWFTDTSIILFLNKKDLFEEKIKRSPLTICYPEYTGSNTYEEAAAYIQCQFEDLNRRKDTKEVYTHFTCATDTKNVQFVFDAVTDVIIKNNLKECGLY
Sa growth 42C second temp = further read-out of Sa growth 42C, marked with its call; relative growth, %; measured here: growth at 30 °C;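 optical density after 20 h as mean of two plates; 100% = untreated growth and lower means inhibition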
* = called active by the depositor; nt = not tested or not shown. Rows were taken by chance; any-hit rate near 0.82%.

No.	SMILES	HCMV NEC inh	Sa growth 42C	Sa growth 42C second temp	GIV-Gai inh
1	CCN1C(=O)/C(=C/C=C2\N(C)c3c(ccc4cccnc34)C2(C)C)SC1=S	nt	95	96	207
2	COc1ccc(S(=O)(=O)N(CC(=O)NCCSc2ccc(C)cc2)c2ccc(C)cc2)cc1	4	101	98	106
3	FC(F)(F)c1ccc(N=Cc2ccco2)cc1	-45	88	47	nt
4	C/C=C/C1OCC2(CO)C(C)C=C(C)C1C2C (configuration not stated)	-14	105	79	96
5	O=C1CSC(c2cccnc2)N1CCN1C(=O)CSC1c1cccnc1 (configuration not stated)	-8	88	84	99
6	CCOC(=O)C(Cc1c[nH]c2ccccc12)NC(=O)c1cc2ccccc2oc1=O (configuration not stated)	-7	nt	nt	104
7	COc1ccc(-c2nc(-c3ccc(C)nc3OC)no2)cc1OC	-12	nt	nt	96
8	O=C(NC1CCCC1)c1ccc(COc2ccccc2Br)o1	-30	86	49	100
9	CC(=O)Nc1ccc(/C=N/N2CCCCC2)cc1	-37	89	95	nt
10	CCC(C(=O)NCCN1CCCC1)N1C(=O)CCn2nc(C)cc21 (configuration not stated)	-5	nt	nt	105
11	Cc1ccc(CNC(=O)CCCn2c(=O)c3ccccc3n(Cc3ccccc3Cl)c2=O)cc1	0	93	92	107
12	Cc1ccc(-c2nnc3c4cnn(-c5ccccc5)c4ncn23)cc1	nt	105	90	100
13	CCOC(=O)c1c(-c2cccs2)csc1NC(=O)c1cc2ccccc2oc1=O	14	nt	nt	107
14	O=C(c1cccs1)N1CCCN(CC(O)COc2ccc(Cl)c(Cl)c2)CC1 (configuration not stated)	nt	94	57	102
15	Cc1cc(OCC(=O)NCc2cccnc2)c(C)cc1Br	2	101	99	99
16	CCc1c(C)c(C#N)c2nc3ccccc3n2c1-n1cnc2ccccc21	-20	94	92	101
17	COc1cccc(N2CCN(C(=O)CCCn3sc4ccccc4c3=O)CC2)c1	-12	84	47	99
18	Cc1cc(Oc2ccc(Cl)cc2)nc(-c2ccccn2)n1	-28	38	40	105
19	CCn1c(=O)[nH]c2cc(-c3noc(COc4ccc(Cl)cc4)n3)ccc21	-47	nt	nt	105
20	COCCCNC(=O)c1ccc(Cn2c(SCc3ccc(F)cc3)nc3cccnc32)cc1	nt	102	104	106

Nothing new here: entries from further up.
No.	SMILES	HCMV NEC inh	Sa growth 42C	Sa growth 42C second temp	GIV-Gai inh
19	CCn1c(=O)[nH]c2cc(-c3noc(COc4ccc(Cl)cc4)n3)ccc21	-47	nt	nt	105
20	COCCCNC(=O)c1ccc(Cn2c(SCc3ccc(F)cc3)nc3cccnc32)cc1	nt	102	104	106

Next compounds follow:
No.	SMILES	HCMV NEC inh	Sa growth 42C	Sa growth 42C second temp	GIV-Gai inh
21	O=C(CSc1nc2ccccc2c(=O)[nH]1)c1ccc(O)cc1O	-21	109	95	105
22	CCCCN1C(=O)c2ccc(C(=O)NCc3ccco3)cc2C1=O	-59	104	102	112
23	CCOC(=O)c1c(C)oc2cc(Br)c(OCC(=O)OCc3ccccc3)cc12	-7	nt	nt	104
24	CCOC(=O)c1ccccc1NC(=O)c1nn(-c2ccccc2C)c(=O)cc1OC	-2	nt	nt	100
25	C=CCNc1nc(N)c(C(=O)Nc2cc(C)on2)s1	3	111	91	103
26	O=C(O)CSCC(=O)NC1CCCCNC1=O (configuration not stated)	8	105	100	105
27	O=C(CN1CCN(CN2C(=O)NC3(CCCC3)C2=O)CC1)Nc1ccc(Cl)c(C(F)(F)F)c1	-12	98	89	nt
28	NC(=O)C1CCN(C(=O)c2ccc(NC(=O)c3nsc4ccccc34)cc2)CC1	nt	85	89	104
29	CCn1c(CN(c2ccc(F)cc2)S(C)(=O)=O)nnc1SCC(=O)N1CCCC1	-20	nt	nt	97
30	CN(C)c1cccc(N2C(=S)SC3CS(=O)(=O)CC32)c1 (configuration not stated)	nt	108	88	93
31	Fc1ccccc1CCNc1c2c(nc3ncnn13)CCCC2	-6	99	79	nt
32	CNC(=O)/C(=N\O)c1ccccc1	-9	94	88	104
33	CCOc1ccc(Cl)cc1C1CC(=O)Nc2cc(OC)c(OC)c(OC)c21 (configuration not stated)	-5	101	91	103
34	CC(=O)N/C(=N/c1nc(C)cc(C)n1)Nc1cccc(C)c1	10	101	92	104
35	CC1CCN(S(=O)(=O)c2ccc(-c3nc(C#N)c(N4CCN(C)CC4)o3)cc2)CC1	-5	nt	nt	103
36	COc1ccc(N2C(=O)/C(=C/c3cc(Cl)c(OCC(=O)O)c(OC)c3)NC2=S)cc1	-69	nt	nt	102
37	Cc1ccnc(NC(c2ccco2)c2c(C)[nH]c3ccccc23)c1 (configuration not stated)	-25	94	81	nt
38	Cc1ccccc1-c1noc(CSc2nc3c(-c4ccccc4)c[nH]c3c(=O)[nH]2)n1	-17	nt	nt	102
39	COc1ccc(C2C(C(N)=O)=C(C)Nc3nc(SCc4ccccc4Cl)nn32)cc1OC (configuration not stated)	-10	103	98	95
40	COc1ccc(CN=C(N)N=C(N)N)cc1	-25	96	103	95

Four of these compounds, reformatted.
Order of results: HCMV NEC inh | Sa growth 42C | Sa growth 42C second temp | GIV-Gai inh
32. CNC(=O)/C(=N\O)c1ccccc1
    -9 | 94 | 88 | 104
33. CCOc1ccc(Cl)cc1C1CC(=O)Nc2cc(OC)c(OC)c(OC)c21 (configuration not stated)
    -5 | 101 | 91 | 103
34. CC(=O)N/C(=N/c1nc(C)cc(C)n1)Nc1cccc(C)c1
    10 | 101 | 92 | 104
35. CC1CCN(S(=O)(=O)c2ccc(-c3nc(C#N)c(N4CCN(C)CC4)o3)cc2)CC1
    -5 | nt | nt | 103

Next part.
No.	SMILES	HCMV NEC inh	Sa growth 42C	Sa growth 42C second temp	GIV-Gai inh
41	COc1ccc2cc3c(nc2c1)N(S(=O)(=O)c1ccccc1)CC3	-10	nt	nt	106
42	Cc1cc(C(N)=O)c2cc(Br)ccc2n1	-11	nt	nt	103
43	C=CCn1c(=O)c(C(=O)Nc2ccccc2F)c(O)c2ccccc21	-18	nt	nt	108
44	Cc1c(C(=O)Nc2ccc(C(C)C)cc2)sc2nc3n(c(=O)c12)CCC3	9	93	102	100
45	Cc1ccc(C)n1-c1sccc1C(=O)CC#N	-12	nt	nt	106
46	CN(c1ccccc1)S(=O)(=O)c1ccc(C(=O)Nc2ccc3c(c2)C(=O)c2ccccc2C3=O)cc1	-20	nt	nt	101
47	Fc1ccccc1-n1ncc2c1ncn1nc(Cc3ccccc3)nc21	-12	104	79	104
48	O=C(Cc1ccc(F)cc1)N1CCCC1c1ccc(F)cc1 (configuration not stated)	-15	nt	nt	103
49	COc1ccc(NC(=O)c2nnc(COCC(=O)N3CCN(c4ccccn4)CC3)s2)cc1	-39	nt	nt	101
50	CC(C)c1ccc(OCC(=O)NC(C)c2ccccc2)cc1 (configuration not stated)	-3	93	85	nt
51	O=C(COc1ccc2ccccc2c1)NC1CC(=O)N(c2ccccc2)C1 (configuration not stated)	nt	79	90	97
52	O=C(OCN1C(=O)c2ccccc2C1=O)C1CCN(S(=O)(=O)c2ccc3c(c2)OCCO3)CC1	-34	83	80	nt
53	CCN1CCN(C(=O)c2nc(-c3nn(-c4ccccc4)c(=O)n(CC)c3=O)no2)CC1	-134	nt	nt	102
54	O=C(N/N=C/c1ccncc1)c1ccccc1	-80	114	91	102
55	Cc1ccc(NC(=O)CSc2nncn2N)cc1C	9	89	101	109
56	COc1ccc2c(c1)c1c(c(=O)n(Cc3ccccc3)c(=O)n1CC(=O)Nc1ccccc1F)n2C	nt	81	85	109
57	CCCN(C(=O)C(C)(C)C)c1nc(-c2ccccc2)cs1	-2	88	73	103
58	CC1=C(C#N)C(c2ccc3c(c2)CCO3)C2=C(CCCC2=O)N1 (configuration not stated)	-42	96	71	103
59	CS(=O)(=O)c1ccc(Cl)c(N)c1	-28	103	96	nt
60	Cc1c(NC(=O)CCN2C(=O)S/C(=C\c3ccc(Cl)cc3)C2=O)c(=O)n(-c2ccccc2)n1C	-14	nt	nt	107

Overlap with the part before: 3 compounds, followed by the next part.
Screens by letter: A = HCMV NEC inh; B = Sa growth 42C; C = Sa growth 42C second temp; D = GIV-Gai inh
[58] CC1=C(C#N)C(c2ccc3c(c2)CCO3)C2=C(CCCC2=O)N1 (configuration not stated)
  A: -42	B: 96	C: 71	D: 103
[59] CS(=O)(=O)c1ccc(Cl)c(N)c1
  A: -28	B: 103	C: 96	D: nt
[60] Cc1c(NC(=O)CCN2C(=O)S/C(=C\c3ccc(Cl)cc3)C2=O)c(=O)n(-c2ccccc2)n1C
  A: -14	B: nt	C: nt	D: 107
[61] Cc1ccc(SCCC(=O)NN)cc1
  A: 10	B: 90	C: 95	D: nt
[62] COc1ccc(CC(=O)Nc2cccc(-c3nc4cccnc4s3)c2)cc1
  A: 10	B: nt	C: nt	D: 109
[63] CCOc1cc(CNC(=O)NC2COc3ccc(OC)cc3C2)cc(OCC)c1OCC (configuration not stated)
  A: nt	B: 85	C: 90	D: 97
[64] CCN(CC)c1ccc(/C=c2\sc3n(c2=O)C(c2ccc(OC)cc2OC)C(C(C)=O)=C(C)N=3)c(OC)c1 (configuration not stated)
  A: -20	B: nt	C: nt	D: 85*
[65] O=C(Oc1ccccc1)c1c(-c2ccccc2)nnc2ccccc12
  A: 2	B: 91	C: 67	D: 101
[66] Fc1ccc(Nc2c(-c3ccccc3)nc3ccccn23)cc1
  A: nt	B: 104	C: 88	D: 99
[67] Nc1cc(C(F)(F)F)ccc1N1CCOCC1
  A: 5	B: 74	C: 97	D: nt
[68] CCc1ccc(C2CC(=O)Nc3c2c(C)nn3-c2ccc3nncn3n2)cc1 (configuration not stated)
  A: -4	B: nt	C: nt	D: 99
[69] CN1C(=O)CSc2ccc(NC(=O)Nc3cccnc3)cc21
  A: 35*	B: 85	C: 87	D: 101
[70] COc1cc(CNC(=O)c2ccc(NC(=O)N3CCCCc4ccccc43)cc2)cc(OC)c1OC
  A: nt	B: 126	C: 81	D: 102
[71] CCc1ccc(NC(=O)CSc2nc3ccccc3c(=O)n2CCc2ccc(S(N)(=O)=O)cc2)cc1
  A: 1	B: 104	C: 82	D: 97
[72] Cc1ccc2c(c1)N(CC(=O)N1CCCCC1C)C(=O)CO2 (configuration not stated)
  A: -5	B: 99	C: 85	D: 98
[73] Cc1ccc(C(C)C(=O)N2CCC(n3nc(-c4ccccc4)oc3=O)CC2)cc1 (configuration not stated)
  A: -17	B: nt	C: nt	D: 102
[74] Cc1c(NC(=O)[C@@H](NC(N)=O)C(C)C)c(=O)n(-c2ccccc2)n1C
  A: 8	B: 77	C: 92	D: nt
[75] COc1ccc(-n2c(O)c(C=NCc3ccccc3)c3ccccc3c2=O)cc1
  A: 6	B: 88	C: 98	D: nt
[76] CN(C)C(=O)c1ccc(C(C)(C)C)cc1
  A: -9	B: 112	C: 89	D: 105
[77] Cn1c(=O)oc2cc(S(=O)(=O)Nc3ccccc3)ccc21
  A: 16	B: 110	C: 102	D: 103
[78] c1ccc(OCCCCN2CCCCC2)cc1
  A: -5	B: 101	C: 110	D: 100
[79] COc1ccc2nc(NC(=O)c3nc(SC(C)C)ncc3Cl)sc2c1
  A: 3	B: 90	C: 81	D: 105
[80] Cn1nccc1C(=O)NCCN1C(=O)OC2(CCCCC2)C1(C)O (configuration not stated)
  A: -11	B: 104	C: 82	D: nt
[81] CCOc1ccccc1C(=O)N(Cc1ccco1)Cc1ccco1
  A: -34	B: 97	C: 80	D: 98
[82] CCOC(=O)c1sc(N)c(C#N)c1CSc1ncnc2sc(CC)cc12
  A: -5	B: 66	C: 98	D: nt
[83] COc1ccc(CN2CCCC(C(=O)N3CCCC3)C2)c(OC)c1OC (configuration not stated)
  A: -6	B: 85	C: 79	D: 108
[84] Cc1ccc(-c2noc(CCCC(=O)N(C)C)n2)cc1
  A: 1	B: 114	C: 97	D: 107
[85] CC(C)Cc1ccc(S(=O)(=O)Nc2cc3[nH]c(=O)[nH]c3cc2Cl)cc1
  A: -8	B: nt	C: nt	D: 110
[86] COc1ccc(-n2c(O)c(C=NCC(c3ccco3)N3CCCC3)c3ccccc3c2=O)cc1OC (configuration not stated)
  A: -50	B: 94	C: 94	D: nt
[87] CC1CCN(C(=O)C(C)N2C(=O)CCCc3ccccc32)CC1 (configuration not stated)
  A: 4	B: nt	C: nt	D: 103
[88] COC(=O)c1ccc(-c2ccccn2)s1
  A: -142	B: 87	C: 90	D: 108
[89] COc1ccc(Cl)cc1S(=O)(=O)N1CCN(C(=O)c2cc(-c3ccc(Br)cc3)n[nH]2)CC1
  A: nt	B: 123	C: 90	D: 106
[90] COc1ccc(C)cc1NC(=O)c1cc2c(=O)n(Cc3cccnc3)ccc2nc1C
  A: nt	B: 101	C: 87	D: 100
[91] Cc1c2c(nc3c(C(=O)NC4CCCC(C)C4C)cnn13)CCCC2 (configuration not stated)
  A: nt	B: 71	C: 65	D: 105
[92] COc1ccc(C(=O)O)cc1NC(=O)C1Nc2ccccc2S(=O)(=O)N1 (configuration not stated)
  A: -17	B: nt	C: nt	D: 92
[93] CC1(N2CCOCC2)CC(=O)N(c2ccccc2)O1 (configuration not stated)
  A: 1	B: 94	C: 75	D: 102
[94] O=C(CSc1nnc(-c2ccc(F)cc2)o1)N(Cc1nc2ccccc2c(=O)[nH]1)CC1CCCO1 (configuration not stated)
  A: 3	B: 98	C: 82	D: nt
[95] Cc1ccc(-c2nnc(SCC(=O)NCc3ccccc3)o2)cc1
  A: 4	B: 104	C: 107	D: 111

Source: PubChem
